Vaccinia Venus: qHTS for Stage-Specific Inhibitors of Vaccinia Orthopoxvirus: Venus Reporter Primary qHTS | hit rate 0.46% among 330,000 | Potency, µM (titrated, usually from 36.5 µM), without a hit: top-dose activity change, negative = inhibition, most hits filed as inhibitors | Vaccinia virus Venus reporter expression, fluorescence | AID 720580, 2013; active means well fitted inhibition curve with a large enough effect; inconclusive means small, poorly fitted or top-dose-only effect; inactive means no such curve, though single readings can be large or run the other way; tested in A549 cells; also: nearly all actives have a fitted effect of over 30% in size; inactives centre near -10
Vaccinia mCherry: qHTS for Stage-Specific Inhibitors of Vaccinia Orthopoxvirus: mCherry Reporter Primary qHTS. Vaccinia virus mCherry reporter infection, fluorescence; about a quarter of the inactives have no number. Potency, µM (series often up to 36.5 µM), for inactives: at the highest dose activity change, negative = inhibition, usual class: inhibitors. hit rate 0.63% among 310,000; active = well fitted inhibition curve with a large enough effect; inconclusive = small, poorly fitted or top-dose-only effect; inactive = no such curve, though single readings can be large or run the other way; tested in A549 cells; also: nearly all actives have a fitted effect of over 35% in size; inactives centre near -10
An asterisk follows results filed as active; & = joins results of further samples; [ ] = another dose, or the depositor's remark. % is scaled to controls: 0 for no effect and ±100 for the full control effect; potency is read from the fitted curve at half-maximal effect.

For CCOC(=O)Nc1ccc(Cc2ccncc2)cc1 the results were Vaccinia Venus -11% and Vaccinia mCherry -10%.
For CCN1CCN(c2ccc([N+](=O)[O-])cc2S(=O)(=O)N2CCOCC2)CC1 the results were Vaccinia Venus -15% and Vaccinia mCherry -20%.
`CC(=O)NNC(=S)NCCc1ccccc1` gave Vaccinia Venus -13% and Vaccinia mCherry -1%.
For CCSc1nnc(-c2sc3nnc(-c4ccccc4)c(-c4ccccc4)c3c2N)o1 the results were Vaccinia Venus -19%.
Cc1ccc(COC(=O)c2cccc(S(=O)(=O)N3CCCCCC3)c2)cc1 was read as Vaccinia Venus -9% and Vaccinia mCherry inactive.
Screening COc1ccc(CCNC(=O)CC(Cc2ccccc2)C(=O)O)cc1OC (stereo not given) returned Vaccinia Venus 3% and Vaccinia mCherry -8%.
Screening Cc1cn2cc(CNC(=O)CN3Cc4ccccc4OC(c4ccccc4F)C3)nc2s1 (stereo not given) returned Vaccinia Venus -16% and Vaccinia mCherry -25%.
COc1cccc(Nc2nnc(SCc3nc4ccccc4s3)s2)c1 was read as Vaccinia Venus -18% and Vaccinia mCherry -16%.
Screening Oc1ccc(NCc2ccc(OCc3ccccc3Cl)cc2)cc1 returned Vaccinia Venus 16% and Vaccinia mCherry 5%.
Screening Cc1cccn2cc(CCNS(=O)(=O)c3ccc4c(c3)OCCO4)nc12 returned Vaccinia Venus -9% and Vaccinia mCherry inactive.
`CCN(CC)S(=O)(=O)c1ccc(-n2cnc3cc(C)c(C)cc32)nc1` gave Vaccinia Venus -12% and Vaccinia mCherry -20%.
`O=C(Nc1ccc([N+](=O)[O-])cc1)c1cccc([N+](=O)[O-])c1` gave Vaccinia Venus -3% and Vaccinia mCherry inactive.
For CC(C)(C)n1nc2c(c1NC(=O)C1CC(=O)N(c3ccc(Cl)cc3)C1)CS(=O)(=O)C2 (stereo not given) the results were Vaccinia Venus 8% and Vaccinia mCherry -7%.
Screening CCCN[C@@H]1C(=O)N2C(C(=O)OCCC)=C(C)CS[C@H]12 returned Vaccinia Venus inconclusive and Vaccinia mCherry -4%&-6%.
For CCOC(=O)c1cc(-c2ccccc2)n(CCC(=O)Nc2ccc(OC)c(Cl)c2)c1C the results were Vaccinia Venus -13% and Vaccinia mCherry -20%.
CC(C)C(=O)NCCc1nc2ccccc2n1CCCOc1ccc(Cl)cc1 was read as Vaccinia Venus inconclusive and Vaccinia mCherry inconclusive.
Screening COC(=O)C(NC(C)=O)(Nc1cc(C)ccn1)C(F)(F)F (stereo not given) returned Vaccinia Venus 3% and Vaccinia mCherry inactive.
For CN(CC(=O)NC1CCCC1)S(=O)(=O)c1cccc(Cl)c1 the results were Vaccinia Venus -10% and Vaccinia mCherry -13%.
Screening O=C(CNC(=O)c1[nH]cnc1C(=O)N[C@@H](Cc1ccccc1)C(=O)OCc1ccccc1)OCc1ccccc1 returned Vaccinia Venus -10% and Vaccinia mCherry -28%.
Screening CCOc1ccc(CCNC(=O)c2nn(-c3ccc(OC)c(Cl)c3)c(=O)c3c2c2ccccc2n3C)cc1OCC returned Vaccinia Venus 2% and Vaccinia mCherry -3%.
Screening COc1cc(/C=C2/SC(=S)N(c3c(C)n(C)n(-c4ccccc4)c3=O)C2=O)ccc1O returned Vaccinia mCherry 198%[activator].
Screening O=C(OCC(=O)N1CCc2ccccc21)c1ccccc1F returned Vaccinia Venus 3% and Vaccinia mCherry -14%.
Screening Cc1c(C(=O)O)c(-c2ccccc2)nn1-c1ccccc1 returned Vaccinia Venus -7%.
For CCCC(=O)N1CCN(c2ccc(NC(=O)C(C)(C)C)cc2Cl)CC1 the results were Vaccinia Venus -15% and Vaccinia mCherry inactive.
`CCCC(=O)Nc1ccccc1-c1nnn(CC(=O)Nc2ccc(OC)cc2)n1` gave Vaccinia Venus -12%.
`CCOc1ccc2c(c1)C(c1cccs1)=NNC(c1cccnc1)=N2` gave Vaccinia Venus -6% and Vaccinia mCherry 0%.
Screening CCCCN(CC)CCCNC(=O)Cn1ncc2c([nH]c3ccc(C)cc32)c1=O returned Vaccinia Venus 3% and Vaccinia mCherry -4%.
`Cn1cc(C=O)c(-c2ccc3c(c2)OCCCO3)n1` gave Vaccinia Venus -1% and Vaccinia mCherry inactive.
Screening Cc1cc(NC(=O)CSc2nnc(-c3ccncc3)n2N)ccc1Br returned Vaccinia Venus -4% and Vaccinia mCherry 0%.
For Cc1ccc(-n2ncc3c2CC(C)(C)CC3NC(=O)Cc2c(C)noc2C)cc1 (stereo not given) the results were Vaccinia Venus -16% and Vaccinia mCherry -24%.

For reference, 10 of the compounds above.
Screening CCOc1ccc(CCNC(=O)c2nn(-c3ccc(OC)c(Cl)c3)c(=O)c3c2c2ccccc2n3C)cc1OCC returned Vaccinia Venus 2% and Vaccinia mCherry -3%.
Screening COc1cc(/C=C2/SC(=S)N(c3c(C)n(C)n(-c4ccccc4)c3=O)C2=O)ccc1O returned Vaccinia mCherry 198%[activator].
Screening O=C(OCC(=O)N1CCc2ccccc21)c1ccccc1F returned Vaccinia Venus 3% and Vaccinia mCherry -14%.
Screening Cc1c(C(=O)O)c(-c2ccccc2)nn1-c1ccccc1 returned Vaccinia Venus -7%.
For CCCC(=O)N1CCN(c2ccc(NC(=O)C(C)(C)C)cc2Cl)CC1 the results were Vaccinia Venus -15% and Vaccinia mCherry inactive.
`CCCC(=O)Nc1ccccc1-c1nnn(CC(=O)Nc2ccc(OC)cc2)n1` gave Vaccinia Venus -12%.
`CCOc1ccc2c(c1)C(c1cccs1)=NNC(c1cccnc1)=N2` gave Vaccinia Venus -6% and Vaccinia mCherry 0%.
Screening CCCCN(CC)CCCNC(=O)Cn1ncc2c([nH]c3ccc(C)cc32)c1=O returned Vaccinia Venus 3% and Vaccinia mCherry -4%.
`Cn1cc(C=O)c(-c2ccc3c(c2)OCCCO3)n1` gave Vaccinia Venus -1% and Vaccinia mCherry inactive.
Screening Cc1cc(NC(=O)CSc2nnc(-c3ccncc3)n2N)ccc1Br returned Vaccinia Venus -4% and Vaccinia mCherry 0%.

Continuation:
For O=C(Nc1ccc(N2CCN(C(=O)c3ccc(Cl)cc3)CC2)cc1)c1ccc(Br)o1 the results were Vaccinia Venus -26%.
Screening CCn1c(SC)nnc1-c1nn(-c2ccccc2)ccc1=O returned Vaccinia Venus -5% and Vaccinia mCherry -14%.
Screening CC(C)OC(=O)CC1C(=O)NCCN1C(=S)NC(=O)c1ccccc1Cl (stereo not given) returned Vaccinia Venus -12% and Vaccinia mCherry inactive.
Screening CC1CCN(C(=O)c2ccc(S(=O)(=O)Cc3cccc(F)c3)c([N+](=O)[O-])c2)CC1 returned Vaccinia Venus -8% and Vaccinia mCherry -10%.
Screening S=C(S)N1CCCC1 returned Vaccinia Venus -23% and Vaccinia mCherry -5%.
`CC1(C(=O)NCc2ccc(F)cc2)Oc2ccccc2NC1=O` (stereo not given) gave Vaccinia Venus -11% and Vaccinia mCherry inactive.
COc1ccc([N+](=O)[O-])cc1NC(=O)CCN1CCN(c2ccccc2OC)CC1 was read as Vaccinia Venus -13% and Vaccinia mCherry -26%.
`COc1cccc(NC(=O)CSc2nncn2N)c1` gave Vaccinia Venus -9%.
`CCCCCc1c(-c2ccc(OC)c(OC)c2)ncn1CCc1ccccc1OC` gave Vaccinia Venus -25% and Vaccinia mCherry -28%.
For CC(NC(=O)c1ccc(S(=O)(=O)N(C)C)cc1)c1ccc(-n2ccnc2)cc1 (stereo not given) the results were Vaccinia Venus -12% and Vaccinia mCherry -2%.
`CCN(CC)C(=O)[C@H]1CC(CC(=O)NCc2ccc(OC)c(OC)c2)C(=O)N2CCc3c([nH]c4ccccc34)[C@]12C` (stereo not given in full) gave Vaccinia Venus inconclusive and Vaccinia mCherry -11%.
`O=[N+]([O-])c1cnc(Nc2ccccc2)nc1Nc1ccccc1` gave Vaccinia Venus -7% and Vaccinia mCherry -49%.
For CN1CCN(C(=O)c2cc3nc(-c4ccc(Cl)cc4)cc(C(F)(F)F)n3n2)CC1 the results were Vaccinia Venus -16%.
Screening CC(C)Oc1ccc(/C=C(\NC(=O)/C=C/c2ccco2)C(=O)NCCc2nc3ccccc3[nH]2)cc1 returned Vaccinia Venus 7% and Vaccinia mCherry inactive.
`O=C(COC(=O)c1ccco1)Nc1ccc2c(c1)OCCO2` gave Vaccinia Venus -30%.
CCc1ccc2occ(CC(=O)Nc3c(C(=O)c4ccc(C)cc4)oc4ccccc34)c2c1 was read as Vaccinia Venus -10% and Vaccinia mCherry 2%.
Screening CCOc1ccc(-n2c(=O)c3c4c(sc3n(CC(=O)NC(C)CC)c2=O)CCCC4)cc1 (stereo not given) returned Vaccinia Venus -2% and Vaccinia mCherry -9%.
`N=c1c[n+](N2CCOCC2)[n-]o1` gave Vaccinia Venus -8% and Vaccinia mCherry -4%.
CCn1c2c(c(=O)n3ncc(C(=O)Nc4ccc(C(=O)OC)cc4)c13)CN(Cc1ccc(OC)cc1)CC2 was read as Vaccinia Venus -12% and Vaccinia mCherry -10%.
`O=C(NC(NC(=S)Nc1cccc(C(=O)O)c1)C(Cl)(Cl)Cl)OCc1ccccc1` (stereo not given) gave Vaccinia Venus -10% and Vaccinia mCherry -13%.
COc1cc(NC(=S)NCCCN2CCOCC2)c(OC)cc1NC(=O)c1ccco1 was read as Vaccinia Venus -10% and Vaccinia mCherry -5%.
`COC(=O)C[C@H](NC(=O)[C@H](C)NC(=O)[C@@H](NC(=O)OCc1ccccc1)C(C)C)C(=O)CF` gave Vaccinia Venus -17% and Vaccinia mCherry inactive.
Screening CCc1ccc(C(=O)NNC(=O)c2cccc(S(=O)(=O)N3CCN(C)CC3)c2)cc1 returned Vaccinia Venus 7% and Vaccinia mCherry 2%.
Screening CCOC(=O)[C@]12CCC=C1N(Cc1ccccc1)C(=O)[C@H](CC(=O)NCc1ccccc1)C2 returned Vaccinia Venus 5% and Vaccinia mCherry 0%.
`CN1C=CC=C/C1=C(\C#N)c1nc2ccccc2[nH]1` gave Vaccinia Venus 0% and Vaccinia mCherry -12%.
COC(=O)c1ccc(N2CCN(C)CC2)c(NC(=O)c2cccnc2)c1 was read as Vaccinia Venus 5% and Vaccinia mCherry -9%.
Screening CCOc1ccccc1N1CC(C(=O)Nc2ccccc2CC)CC1=O (stereo not given) returned Vaccinia Venus 0% and Vaccinia mCherry inactive.
For C[C@H]1CN([C@@H](C)CO)C(=O)c2cccc(NC(=O)Nc3ccc(F)cc3)c2O[C@@H]1CN(C)Cc1ccc(C(=O)O)cc1 the results were Vaccinia Venus -3% and Vaccinia mCherry inactive.
Screening COCCN(C(=O)Cn1nnc2ccccc21)C(C(=O)NC1CCCC1)c1cccc(OC)c1OC (stereo not given) returned Vaccinia Venus 3%.
Cc1ccc(C(=O)OCC(=O)Nc2ccc3[nH]c(=O)[nH]c3c2)o1 was read as Vaccinia Venus -10% and Vaccinia mCherry -13%.
Screening COc1ccc(-n2nc(C(=O)Nc3ccc4c(c3)OCO4)c3c4ccccc4n(C)c3c2=O)cc1 returned Vaccinia Venus 1% and Vaccinia mCherry -12%.
`CC(OC(=O)CCN=C1NS(=O)(=O)c2ccccc21)C(=O)Nc1ccccc1F` (stereo not given) gave Vaccinia Venus -7% and Vaccinia mCherry -10%.
For CCOCCCNC(=O)C(c1ccccc1)N(Cc1ccc2c(c1)OCO2)C(=O)c1ccccc1O (stereo not given) the results were Vaccinia Venus -22% and Vaccinia mCherry inactive.
COc1ccc(-c2cc3nc(C)c(CCC(=O)N4CCN(c5ccccc5F)CC4)c(C)n3n2)c(OC)c1 was read as Vaccinia Venus -1% and Vaccinia mCherry -7%.
Cc1nc2ccn(Cc3ccco3)c(=O)c2cc1C(=O)NCc1ccccc1F was read as Vaccinia Venus 2% and Vaccinia mCherry -2%.
Screening CCCn1cnc2cc(NCc3ccc(OC)cc3OC)ccc21 returned Vaccinia Venus -16% and Vaccinia mCherry -17%.
`C/C(=N\NC(=O)Cn1c(-c2ccccn2)nc2ccccc21)c1ccccc1` gave Vaccinia Venus -15% and Vaccinia mCherry inactive.
For COc1ccccc1N1CCN(C(=O)c2oc3ccc(Br)cc3c2C)CC1 the results were Vaccinia Venus -27% and Vaccinia mCherry inconclusive.
C/C(NC(=O)c1ccccc1)=C1/C(=O)CC2C1C2(C)C (stereo not given) was read as Vaccinia Venus -5%.
Screening CCN(Cc1ccccc1)Cc1c(C)[nH]c2c(C)c(C)ccc2c1=O returned Vaccinia Venus -12% and Vaccinia mCherry -12%.
`FC(F)(F)c1nc2ccccc2nc1N/N=C\c1ccccc1` gave Vaccinia Venus -20%.
Screening O=C1c2ccccc2NC(c2ccc(F)cc2)N1Cc1ccco1 (stereo not given) returned Vaccinia Venus -14% and Vaccinia mCherry inactive.
O=C(N/N=C/c1cccc(Br)c1)c1ccc(Cn2cc(Br)cn2)o1 was read as Vaccinia Venus -17% and Vaccinia mCherry -25%.
Screening F[B-](F)(F)c1cnc2ccccc2c1 returned Vaccinia Venus 0% and Vaccinia mCherry inactive.
CC1CC(C)(C)N(C(=O)CN2C(=O)CCC2=O)c2ccccc21 (stereo not given) was read as Vaccinia Venus -13% and Vaccinia mCherry -7%.
Cc1cc(NS(=O)(=O)c2c(C(=O)N3CCOCC3)c(C)n(C)c2C)ccc1Br was read as Vaccinia Venus -25% and Vaccinia mCherry -8%.
`Fc1ccc(CNc2nc3c(-c4ccc(F)cc4)nnn3c3ccccc23)cc1` gave Vaccinia Venus -1% and Vaccinia mCherry 2%.
For CC12CN3CC(c4ccccc4)(CN(C1)C31CCCCC1)C2=O the results were Vaccinia Venus -6%.
